Calb FLC – C. albicans growth modulation with fluconazole; C. albicans CaCi-2 (fluconazole-resistant clinical isolate) + fluconazole, Alamar Blue growth, 48 h; growth inhibition, % (concentration not given with the values); actives 0.57% (n = 300,000); AID 1979;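 active means most replicates above 75%; inconclusive means exactly half above 75%; inactive means most below 75%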;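 further: all wells also contain fluconazole at 8 µg/ml as a sub-toxic cotreatment; 0% = median of DMSO wells and 100% = median of geldanamycin control wells; wells of about 8 µL received 7.5 nL stock; the first replicate is given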
T cruzi repl – blocks replication of Trypanosoma cruzi. inhibition, % (test concentration not listed). T. cruzi beta-gal in NIH3T3, luminescence, 90 h. actives 1.4% (n = 300,000). AID 1885;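 active means mean inhibition across valid replicates above about 55%, limit read from the data; inconclusive means mean below that limit but half or more replicates reach it; inactive means mean below it, under half of replicates reach it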;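 further: signal also drops with host cell toxicity which is not excluded here; 0% = plate median of DMSO wells and 100% = zero luminescence signal; higher percent means less beta-gal luminescence so fewer parasites; stock transfer was 50 nL into about 50 µL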
LANA-H2B inh – blocks KSHV LANA binding to histone H2A/H2B; inhibition, % (no concentration beside the values); AID 2629; cell-free LANA-H2A/H2B peptide, fluorescence polarization; actives 0.6% (n = 320,000); in the data active means inhibition mostly above about 10%, no sharp cut-off; inactive means mostly below about 6.7%;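 further: stock transfer was 7.5 nL into about 10 µL; 0% = median of vehicle wells and 100% = median of positive control wells; one replicate is shown; the record names a cut of 25% in any replicate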
rRNA inh HTS – inhibits bacterial ribosomal RNA function over humanized ribosomes; GFP signal change (wild-type ribosome), % (test concentration not listed); E. coli WT GFP vs humanized-ribosome RFP mutants, fluorescence, 24 h; active compounds read low; DMSO median 0, no signal -100; actives 1.6% (n = 350,000);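 active means significant combined selectivity score with lowered wild-type GFP, culture density cut under 30%, mutant RFP and density less affected; inactive means any of these conditions unmet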; further: one replicate is shown; some compounds called inactive have numbers as strong as hits
B2AR ag – human beta-2 adrenergic receptor agonism by FAP | P07550 | Am2.2-beta2AR cells, FAP receptor internalization, flow cytometry; reference of the scale not given here | response, % (concentration not given with the values) | actives 0.43% (n = 340,000) | AID 504454;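 active means response above a set limit, near 3 SD of response in nonfluorescent compounds, cut at about 42% in these data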;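 further: stock transfer was 100 nL into about 11 µL; a reference agonist was the positive control; negative values mostly stem from fluorescent compounds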
Target sequence (P07550 whole entry, looked up): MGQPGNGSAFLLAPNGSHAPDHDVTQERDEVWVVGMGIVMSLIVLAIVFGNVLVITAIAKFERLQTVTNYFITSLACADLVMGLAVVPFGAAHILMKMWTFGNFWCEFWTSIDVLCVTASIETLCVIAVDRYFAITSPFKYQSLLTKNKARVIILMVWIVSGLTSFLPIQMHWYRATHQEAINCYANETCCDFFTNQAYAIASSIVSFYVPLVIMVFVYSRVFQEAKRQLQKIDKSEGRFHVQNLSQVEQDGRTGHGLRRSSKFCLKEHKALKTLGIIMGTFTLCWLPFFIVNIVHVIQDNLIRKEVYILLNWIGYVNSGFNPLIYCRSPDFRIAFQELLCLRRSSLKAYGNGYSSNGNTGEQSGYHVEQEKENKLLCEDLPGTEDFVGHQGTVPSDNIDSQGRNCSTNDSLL
ALR inh – inhibitors of human sulfhydryl oxidase ALR | P55789 | purified ALR, DTT oxidation, H2O2 HRP-luminol luminescence | inhibition, % (concentration not given with the values) | actives 3.8% (n = 290,000);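 active means mean and each replicate at 75% or more; inconclusive means only one of the two met; inactive means neither met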;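 further: stock transfer was 7.5 nL into about 7.5 µL; 0% = neutral wells and 100% = wells with inactivated enzyme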
Target sequence (P55789 whole entry, looked up): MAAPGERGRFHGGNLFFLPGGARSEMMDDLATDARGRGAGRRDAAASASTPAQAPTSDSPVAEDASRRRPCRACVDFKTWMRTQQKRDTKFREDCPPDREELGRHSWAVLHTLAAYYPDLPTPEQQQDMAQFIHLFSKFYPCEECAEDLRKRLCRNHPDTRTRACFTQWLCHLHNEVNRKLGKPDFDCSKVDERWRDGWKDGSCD
Beta cell apopt – blocks beta cell apoptosis | actives 0.8% (n = 300,000) | protection from apoptosis, % (concentration not given with the values) | INS-1E cytokine-induced death, ATP luminescence, 48 h; percent of positive-control rescue, neutral wells zero;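 active means all replicates at 75% or more, or half of them and the mean; inconclusive means half reach 75% but not the mean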;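 further: 0% = cytokine-treated negative control wells and 100% = positive control rescue; higher means more ATP so stronger rescue from cytokine killing; wells of about 40 µL received 100 nL stock; the first replicate is given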
A1 inh – inhibitors of the anti-apoptotic protein A1, read as caspase activation. MEF A1-2A-BIM cells, Caspase-Glo 3/7 luminescence, 3 h; percent of clofoctol response, vehicle zero. caspase activation, % (concentration not given with the values). actives 0.066% (n = 330,000);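 active means over half of replicate activation scores above 10%, or exactly half above 10 with the replicate mean above 10; inconclusive means replicate mean below 10 yet half the replicates above 10; inactive means over half of replicates below 10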;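 further: wells of about 30 µL received 50 nL stock; many hits fall short of the cut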
rRNA inh HTS OD600 – further read-out of rRNA inh HTS, marked with its call; OD600 change, %; measured here: OD600 growth;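 optical density of the mix in the first replicate; 0 = DMSO median and -100 = no signal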
rRNA inh HTS RFP – further read-out of rRNA inh HTS, marked with its call; RFP signal change, %; measured here: RFP humanized mutant strains;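 first replicate; 0 = DMSO median and -100 = no signal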
Starred values were filed as active, the others as inactive; ? = inconclusive; . = not tested or not shown; & = joins results of further samples. A portion of the library. The share of hits here may be higher or lower than overall.

Values in the order: Calb FLC	T cruzi repl	LANA-H2B inh	rRNA inh HTS	rRNA inh HTS OD600	rRNA inh HTS RFP	B2AR ag	ALR inh	Beta cell apopt	A1 inh
> Cc1ccc(C(=O)COC(=O)c2nc3nccc(C)n3n2)c(C)c1
 : .	.	2.8	3	8	7.3	-1	0	-2	-0.2
> O=C(c1cc(-c2ccccc2)nn1-c1ccccc1)N1CCN(S(=O)(=O)c2cccc(F)c2)CC1
 : -3	0	-1.1	13	21	-3.1	17	-3	2	0.7
> CCOC(=O)c1c(S(=O)(=O)N2CCN(c3ccc(C(C)=O)cc3)CC2)c(C)n(C)c1C
 : 1	-6	1.2	4	3	1.2	0	-1	.	0.4
> CC(C)C(=O)NC(Nc1cc(C(F)(F)F)ccc1Cl)C(Cl)(Cl)Cl (stereo unspecified)
 : -5	11	1.8	.	.	.	3	1	1	-0.8
> Cc1ccc(N(CC(=O)Nc2cccc(Cl)c2C)S(C)(=O)=O)cc1
 : -1	5	0.1	-6	4	-4.1	-10	-14	4	0.2
> O=C(NC1=NCCS1)c1ccc(Cl)c(Cl)c1
 : -17	-15	1.3	-1	2	-5.4	-9	-2	1	-6.3
> Cc1[nH]nc2c1C(c1ccccc1F)CC(=O)N2 (stereo unspecified)
 : -6	-9	-1.1	.	.	.	3	-6	-6	0.6
> O=C(COc1ccccc1)NC(Cc1c[nH]c2ccccc12)C(=O)O (stereo unspecified)
 : -2	-8	-3.8	.	.	.	3	-4	0	0.5
> COc1ccc(C2CC(c3cccs3)=NN2C(=O)CCC(=O)O)cc1OC (stereo unspecified)
 : 1	-9	-8.3	-6	8	2.3	.	6	-6	-0.7
> C[C@H](CO)N1C[C@H](C)[C@@H](CN(C)Cc2ccc(-c3ccccc3)cc2)Oc2c(NS(=O)(=O)c3cccs3)cccc2C1=O
 : .	.	-0.9	1&14	-3&13	-0.7&6.0	-1	-2	-11	-0.3
> CCCCc1ccc(NC(=S)Nc2ccc(Nc3ccc(OC)cc3)cc2)cc1
 : -27	42	-0.2	.	.	.	56*	3	.	-1.5
> CCOC(=O)C1CCCN(S(=O)(=O)c2cc3c4c(c2)CCC(=O)N4CCC3)C1 (stereo unspecified)
 : 2	5	-1.7	-15	-15	0.4	4	.	0	-0.3
> O=C(NCc1ccccc1)C1CCCN1S(=O)(=O)c1ccc(Cl)cc1 (stereo unspecified)
 : -5	-2	1.4	-4	2	-1.1	25	.	-3	0.5
> CCn1cc(NC(=O)Nc2ccccc2C(=O)OC)c(C(N)=O)n1
 : 32	-10	-7.6	.	.	.	9	-23	2	2.1
> CCn1c(C)c(C(C)=O)c(N2CCN(c3ccc(OC)cc3)CC2)nc1=S
 : -15	-7	-6.2	0	1	-3.5	15	.	-1	1.1
> NC(=O)c1sc2nc(-c3ccccc3)c3c(c2c1N)CCCC3
 : 7	3	4.4	-13	-18	2.5	-33	9	3	0.1
> Cc1ccsc1C(=O)OCC(=O)Nc1nnc(-c2ccccc2)o1
 : .	-14	-3.9	-47	-72	-14	2	2	4	0.5
> Cc1cccc(NC(=S)N2CCN(C(=O)c3ccco3)CC2)c1
 : 4	-2	-4.3	1	3	-0.4	-5	2	-3	0.6
> CC1Cc2ccccc2N1S(=O)(=O)c1cccc(C(=O)NCCCn2ccnc2)c1 (stereo unspecified)
 : 3	-8	-1.2	5	2	0.6	-6	-6	3	0.1
> Cn1c(=O)c2c(nc(N3CCCCCC3)n2CC(=O)c2ccccc2)n(C)c1=O
 : -5	-7	4.8	.	.	.	2	-1	6	0.9
> Cc1ccc(C(=O)Oc2ccccc2N2C(=O)C3C4CCC(C4)C3C2=O)cc1 (stereo unspecified)
 : ?	-6	-3.0	-7	-10	-4.7	-2	-2	-7	-0.2
> Cc1ccc(CSc2nnc(-c3ccncc3)n2N)cc1
 : -2	-19	0.0	5	3	-1.7	-4	-6	-1	0.0
> Cc1ccc(C(=O)NCC(=O)OC(C)C(=O)NC2CCCc3ccccc32)cc1 (stereo unspecified)
 : 6	-1	-1.3	4	5	4.4	1	-6	-3	-1.0
> CCN(CC)CCOC(=O)c1ccc(NC(=O)c2cccc(C)c2[N+](=O)[O-])cc1
 : 1	-15	1.3	6	-1	-1.4	11	-12	4	0.1
> CC(/C=N/NC(=O)Cn1cnc2c1c(=O)n(C)c(=O)n2C)=C\c1ccccc1
 : 38	3	3.9	.	.	.	-10	0	3	0.7
> COc1ccc(C2=NOC(C(=O)Nc3ccc4c(c3)OCO4)C2)cc1OC (stereo unspecified)
 : 6	11	-4.7	13	7	-0.1	-5	-16	1	0.1
> Cc1ccc(SC(C)c2nc(-c3cccnc3)no2)cc1 (stereo unspecified)
 : 1	-10	-4.0	.	.	.	1	-5	-8	0.0
> C=CCOc1ccc(CNCC2CCCO2)cc1 (stereo unspecified)
 : -8	0	2.5	10	15	0.8	-4	-24	-5	0.0
> CCCCn1c(=N)n(CC(O)COc2ccc(C)cc2)c2ccccc21 (stereo unspecified)
 : -7	27	1.3	.	.	.	26	9	18	0.4
> Cn1c(SC2CCCCC2=O)nnc1-c1ccncc1 (stereo unspecified)
 : 30	-4	0.0	.	.	.	-2	19	0	0.5
> CC(C)Cn1cc(C(=O)NCCCN2CCCC2=O)c2c3ccccc3n(C)c2c1=O
 : -13	1	-5.6	.	.	.	12	-2	-4	0.6
> COCCNC(=S)N1CCN(c2ccc(Cl)cc2)CC1
 : 1	13	9.2	-2	-1	-4.2	-7	67	2	0.3
> CNC(=O)/C=C/c1cccc(C(F)(F)F)c1
 : 31	-3	-4.9	9	4	-0.5	-4	.	0	0.8
> Cn1nnc(NC(=S)NC(=O)/C=C/c2ccco2)n1
 : 39	-16	-1.8	.	.	.	2	71	-2	-0.6
> CC[C@H](C)Cc1cn([C@@H](CCCCN)C(=O)NCCCCCCCCCCC(=O)N2CCNCC2)nn1
 : 2	-46	-1.4	2	-11	17	-9	-4	-4	-0.1
> CC(=O)N1N=C(c2cccs2)CC1c1ccc(C)o1 (stereo unspecified)
 : -22	3	36*	-9	-8	4.7	-3	3	-1	-0.2
> Cc1cc(/C=C2\SC(=S)NC2=O)c(C)n1-c1ccccc1
 : 27	-2	-0.7	-14	-9	3.5	7	.	.	-1.1
> COc1cccc(C(=O)N2CCN=C2SCc2cccnc2)c1OC
 : 0	-22	4.4	-3	3	-2.2	13	100*	.	?
> O=C(COC(=O)c1ccccc1NC(=O)C1CC1)c1ccc2c(c1)OCCO2
 : 26	-8	0.0	.	.	.	.	-2	-2	-0.3
> Cc1ccc(-c2nnn(CC(=O)NC3CC4CCC3C4)n2)cc1 (stereo unspecified)
 : -4	-11	1.4	.	.	.	-7	0	-4	0.1
> O=C(CNC(=O)c1ccco1)N/N=C/c1cc(Br)ccc1O
 : 6	12	1.9	-4	3	-2.0	0	.	58	-0.1
> Cc1cccc(NC(=O)CN2C(=O)CCSc3ccc(S(=O)(=O)N4CCOCC4)cc32)c1C
 : 9	12	7.4	9	6	4.9	-9	-3	.	-1.2
> O=C(Nc1nnc(SCC(=O)N2CCCCC2)s1)c1ccccc1F
 : 10	-37	3.8	5	3	-1.1	-5	-26	-1	0.3
> CCC(C)(C(=O)Nc1ccc(OC)cc1)N(C)C(=O)Cn1nnnc1N (stereo unspecified)
 : 8	3	5.4	4	14	0.8	7	.	-7	-0.9
> O=C1CCc2cc(S(=O)(=O)N3CCCC3C(=O)NC3CCCCCCC3)ccc2N1 (stereo unspecified)
 : -1	5	3.0	5	-1	0.2	3	-28	-5	0.2
> Cn1c(Cn2c(=O)sc3ccccc32)nnc1SCC(=O)NCc1ccccc1Cl
 : 1	-1	-1.9	2	-2	0.3	-5	-4	0	0.4
> CCNc1ccc(S(=O)(=O)N(C)C)cc1[N+](=O)[O-]
 : -7	-15	1.1	14	9	4.7	0	1	.	1.4
> NCCSc1c(-c2ccc(Cl)cc2)[nH]c2ccccc12
 : -3	33	2.3	0	-23	-4.6	3	-7	10	-0.7
> COc1cccc(C(=O)CN2CCC(NC(=O)NC3CCCCC3)CC2)c1
 : 28	4	.	14	12	-0.5	11	.	.	.
> Cc1ccc(Nc2nc(N)c([N+](=O)[O-])c(NCc3ccco3)n2)cc1
 : 3	15	4.1	.	.	.	9	-8	0	0.2
> O=C(CNS(=O)(=O)c1ccccc1)OCC(=O)c1cccc([N+](=O)[O-])c1
 : -10	-7	3.9	.	.	.	-3	-13	5	0.6
> O=C(Cn1nnc2ccccc21)NNC(=O)c1ccccc1
 : 3	-10	1.8	-16	-5	13	1	3	-6	-0.5
> O=C(CCc1nnc(CCc2ccccc2)o1)N1CCCCC1CCn1cccn1 (stereo unspecified)
 : 16	7	-5.8	.	.	.	-7	.	-3	0.3
> CC1CC(C)CN(C(=O)CN2CCN(Cc3ccc(Cl)cc3)C2=O)C1 (stereo unspecified)
 : 11	-5	-1.8	.	.	.	4	.	.	0.1
> COc1ccccc1-n1cc(C(=O)NCC(=O)N2CCN(Cc3ccccc3)CC2)c2ccccc2c1=O
 : -5	14	2.5	5	-2	1.3	1	-6	1	-0.5
> COc1ccc(CNCc2c(O)c(Cl)cc3c(C)c(C)c(=O)oc23)c(OC)c1
 : 2	-5	2.6	7	7	-1.0	2	7	-7	-0.2
> O=C(NCc1ccc2c(c1)OCO2)c1ccc(Cl)c(S(=O)(=O)NCc2ccccc2)c1
 : 3	4	4.0	-11	-35	-5.2	0	-17	4	0.4
> O=C([C@H](Cc1ccccc1)NS(=O)(=O)c1ccc(Cl)cc1)N1CC[C@@]2(O)CCCC[C@H]2C1
 : -4	2	0.3	.	.	.	3	-3	0	0.1
> COc1ccccc1CN1CC(C(=O)N2CCN(c3ccc(F)cc3)CC2)CC1=O (stereo unspecified)
 : -11	-5	1.7	.	.	.	-6	26	-8	0.8
> CC(C)Oc1ccc(CNC(=S)N/N=C/c2cccnc2)cc1
 : -20	2	-3.9	.	.	.	-13	18	-2	-1.4

New compounds follow:
Values in the order: Calb FLC	T cruzi repl	LANA-H2B inh	rRNA inh HTS	rRNA inh HTS OD600	rRNA inh HTS RFP	B2AR ag	ALR inh	Beta cell apopt	A1 inh
> Cc1ccccc1NS(=O)(=O)c1cc(C(N)=O)ccc1C
 : 3	-12	0.3	.	.	.	-9	-5	.	0.2
> COc1cc(OC)c(OC)cc1CN1CCN(Cc2cccn2C)CC1
 : 3	4	5.6	.	.	.	1	-14	-2	0.6
> Cc1cc(C)c(C(=O)NC2CCCc3c2cnn3-c2ccc(C)c(C)c2)c(=O)[nH]1 (stereo unspecified)
 : 12	2	-4.8	3	-5	-0.1	6	21	-2	-0.4
> CCOC(=O)[C@@H]1[C@H]2COc3ccccc3[C@@H]2N2C(=O)N(c3ccc(C(F)(F)F)cc3)C(=O)[C@]12C
 : 6	8	-0.8	2	1	-4.2	0	0	.	-0.7

Records listed above that bear a hit mark in ALR inh.
canonical_smiles,LANA-H2B inh,rRNA inh HTS,rRNA inh HTS OD600,rRNA inh HTS RFP,B2AR ag,ALR inh
COc1cccc(C(=O)N2CCN=C2SCc2cccnc2)c1OC,4.4,-3,3,-2.2,13,100*
